HIV TAR-Tat: TAR RNA-Tat peptide displacers, HIV-1, primary screen, biochemical, FRET, FAM/TAMRA-labeled Tat. HIV-1 TAR RNA, Tat peptide displacement FRET; hits give high values. z-score (concentration not given with the values). actives 0.6% (n = 100,000);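 further: score is relative to mean and SD of negative controls; some compounds called inactive have numbers as strong as hits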
CDC25B CDK2 inh: primary biochemical HTRF screen for blockers of M-phase inducer phosphatase 2 binding to CDK2/cyclin A. P30305+P24941. HTRF CDC25B-CDK2/CyclinA binding, anti-His/anti-Flag; hits give high values. z-score (concentration not given with the values). actives 0.72% (n = 94,000). AID 1259370, 2018;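 further: score is relative to mean and SD of negative controls; strong numbers were not always called active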
The depositor's hits bear a star; · = not tested or not shown.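 How the source made its calls: active means z-score from 3 up in half or more of its runs; inactive means the rest.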

item	Structure	HIV TAR-Tat	CDC25B CDK2 inh
1	CCCCCN(C)S(=O)(=O)C1CCS(=O)(=O)C1 (centres undefined)	-1.4	-1.8
2	CN1CCN(C(=O)C2(c3cccs3)CCOCC2)CC1	0.58	·
3	COc1ccc(OCC(O)Cn2c(N3CCNCC3)nc3c2c(=O)n(C)c(=O)n3C)cc1 (centres undefined)	·	1.4
4	COc1cc(/C=C/C(=O)O)cc(S(=O)(=O)Nc2cccc(C(=O)O)c2)c1OC	·	-1.5
5	COc1cccc(N2C(=O)CC3c4ccccc4CCN3C2=O)c1 (centres undefined)	0.19	·
6	O=C(c1ccc([N+](=O)[O-])cc1)c1ccc2c(c1)CCC2	·	-1.1
7	CCOC(=O)Nc1cccc(N2CCn3c(nc4ccccc43)C2)c1	-6.8	0.18
8	Cc1oc(C(C)(C)C)cc1C(=O)NC1CCN(Cc2ccccc2)CC1	·	-2
9	Cc1cc(-c2ccccc2)nc2cc(-c3nc(-c4ccc5c(c4)OCO5)no3)nn12	2.8	1.6
10	O=C(N/N=C/c1ccc([N+](=O)[O-])s1)c1nc(-c2ccc([N+](=O)[O-])o2)no1	·	-1.9
11	CCOC(=O)c1c(C)oc2ncnc(N3CCN(c4ccccc4)CC3)c12	-0.32	·
12	O=C(CC1SC(=O)NC1=O)Nc1ccccc1NC(=O)CC1SC(=O)NC1=O (centres undefined)	·	-3.5
13	Cn1cc(C(=O)c2ccc(Cl)cc2)cc1/C=C(\C#N)S(=O)(=O)c1ccc(C(F)(F)F)cn1	·	-0.26
14	OCCN1CCN(c2nc(N3CCCCC3)nc(N3CCCCC3)n2)CC1	-0.54	-0.93
15	Cc1nnc2ccc(NCc3ccc(Cl)cc3)nn12	1.1	-1.1
16	CSc1nc2c(c(=O)[nH]1)C(c1ccc(O)c(O)c1)CC(=O)N2 (centres undefined)	18*	5.6
17	CCOC(=O)c1c(NC(=O)Cn2nc([N+](=O)[O-])c(Br)c2C)sc2c1CCC(C)C2 (centres undefined)	2.7	·
18	O=C(O)CCn1c(=S)[nH]c2c(sc3ccccc32)c1=O	·	-1.5
19	CS(=O)(=O)CCC(C(=O)NCc1ccc(CN2CCOCC2)o1)N1Cc2ccccc2C1=O (centres undefined)	-0.91	·
20	CCOC(=O)c1cn2nc(N3CCCCC3)ccc2n1	·	-1

A draw from above in order of length of the SMILES, highest first.
item	Structure	HIV TAR-Tat	CDC25B CDK2 inh
14	OCCN1CCN(c2nc(N3CCCCC3)nc(N3CCCCC3)n2)CC1	-0.54	-0.93
18	O=C(O)CCn1c(=S)[nH]c2c(sc3ccccc32)c1=O	·	-1.5
15	Cc1nnc2ccc(NCc3ccc(Cl)cc3)nn12	1.1	-1.1

Next entries.
item	Structure	HIV TAR-Tat	CDC25B CDK2 inh
21	Cc1cc(C)n(-c2cc(NCCC3=CCCCC3)ncn2)n1	-0.7	·
22	O=C(NCCCN1CCN(c2ccccc2)CC1)c1noc2c1CSc1ccccc1-2	0.59	-1.4
23	COc1ccc(-c2cn(C(=O)c3cccs3)nc2C)cc1	·	0.94
24	CCOCCOc1nc(C)cc(C)c1C#N	·	-2.8
25	O=C(CCc1ccc(O)cc1)N/N=C/c1cc(Cl)cc(Cl)c1O	·	-2
26	c1ccc(CCN2CCc3nc(Nc4ccc5c(c4)OCCO5)ncc3C2)cc1	1.8	·
27	Cc1oc(-c2ccc(Cl)cc2)cc1C(=O)N1CCN(Cc2ccccc2)CC1	·	-2
28	CCc1cc2c3c([nH]c2cc1S(=O)(=O)NCCCc1ccco1)CCCC3=O	2.4	·
29	Nc1ccc2nc(/C=C/c3ccccc3)[nH]c2c1	-1.3	-2.8
30	CCOC(=O)CSc1nc2c(c(=O)[nH]1)C1(CCCCC1)Cc1ccccc1-2	0.83	-1.1
31	COc1ccc(/C(O)=C2/C(=O)C(=O)N(CC3CCCO3)C23C(=O)N(C)c2ccccc23)cc1C (centres undefined)	1.8	0.75
32	CC(=O)Nc1nonc1-c1nnc(SCC(=O)Nc2ccccc2)n1-c1ccccc1	0.36	0.82
33	COC(=O)c1ccc(S(=O)(=O)N2CCCN(c3ccc(C(F)(F)F)cn3)CC2)n1C	·	0.99
34	Cc1ccc(OC(C)c2nc(-c3ccc(-n4cccc4)cc3)no2)cc1C (centres undefined)	2.1	0.09
35	CCOC(=O)c1cnc2c(c(C)nn2C)c1NNc1ccccc1	·	-2.6
36	CCCNC(=O)CCCc1nnc2n(CCC)c(=O)c3sccc3n12	-1	-2
37	COC(=O)C1C(O)=C(C=NCC(C)N=CC2=C(O)C(C(=O)OC)C(C)(C)CC2=O)C(=O)CC1(C)C (centres undefined)	·	-1.7
38	CCN1CCN(c2cc(C)nc3nc(Cc4ccccc4)nn23)CC1	2.1	2.8
39	O=C1c2cccnc2C(=O)N1CCc1ccc(S(=O)(=O)N2CCCc3ccccc32)cc1	0.32	·
40	OC(c1ccccc1)c1nc2ccccc2n1CCCOc1ccccc1 (centres undefined)	0.17	-0.5

Another view of some results above:
(27) Cc1oc(-c2ccc(Cl)cc2)cc1C(=O)N1CCN(Cc2ccccc2)CC1
  HIV TAR-Tat = ·
  CDC25B CDK2 inh = -2

(28) CCc1cc2c3c([nH]c2cc1S(=O)(=O)NCCCc1ccco1)CCCC3=O
  HIV TAR-Tat = 2.4
  CDC25B CDK2 inh = ·

(29) Nc1ccc2nc(/C=C/c3ccccc3)[nH]c2c1
  HIV TAR-Tat = -1.3
  CDC25B CDK2 inh = -2.8

(30) CCOC(=O)CSc1nc2c(c(=O)[nH]1)C1(CCCCC1)Cc1ccccc1-2
  HIV TAR-Tat = 0.83
  CDC25B CDK2 inh = -1.1

Continuation.
item	Structure	HIV TAR-Tat	CDC25B CDK2 inh
41	O=C(CN1C=NS(=O)(=O)c2ccccc21)Nc1ccccc1	0.27	·
42	CN1CCN(c2ccc(CNS(=O)(=O)c3cn(C)cn3)cc2)CC1	·	-1.4
43	COc1cc(C2C(N3C(=O)c4ccccc4C3=O)C(=O)N2c2ccc(C)cc2C)cc(OC)c1OC (centres undefined)	·	-2.6
44	CCCCCn1cc2c(c1-c1ccccc1Br)c(=O)n(C)c(=O)n2C	0.5	0.41
45	CC(C)C(=O)Nc1ncc(Cc2cccc(Cl)c2Cl)s1	·	-4.2
46	COC(=O)Cc1c(C)nc2nc(NCc3cccs3)[nH]n2c1=O	1.3	0.52
47	N#Cc1cc2c(nc1SCC(=O)NC1CCCCC1)CCCC2	-0.69	-6.1
48	O=C1CC(C(=O)Nc2ccc(Br)cc2)C2(CCCCC2)O1 (centres undefined)	·	2.2
49	CN(CCN1C(=O)c2cc3occc3n2CC1(C)C(=O)NC1CCCCC1)C1CCCCC1 (centres undefined)	-3.4	·
50	Cc1csc2nc(CSc3ccccc3NC(=O)c3cccs3)cc(=O)n12	1	·
51	COc1ccc(C2=Nc3ccc(C)cc3NC(c3ccc(OC)cc3)=N2)cc1	1.4	-0.35
52	Cn1c(SCc2ccccc2)nc(=O)c2c1NC(=O)CC2c1cccc(O)c1 (centres undefined)	1.2	0.32
53	O=C(NCCN1CCOCC1)c1sc2ccccc2c1Cl	3.7	-0.63
54	C=CCn1c(SCC(=O)NCc2cccnc2)nc2sc3c(c2c1=O)CCC3	1.6	-2.5
55	Cc1ccc(NC(=O)Nc2csc3c2CCCC3)c(C)c1	1	0.3
56	CCN(Cc1nc(-c2ccc(OC)cc2)no1)S(=O)(=O)c1c(C)cc(C)cc1C	1.5	1.3
57	Nc1nc(NCc2ccccc2OC(F)(F)F)n[nH]1	·	0.32
58	CC1(C)CC(=O)C2=C(C1)Nc1ccccc1NC2c1ccc([N+](=O)[O-])o1 (centres undefined)	-2.8	-1.9
59	COc1cccc(CN2c3ccccc3S(=O)(=O)c3ccccc32)c1	0.16	·
60	CNC(=O)c1cc(-c2cccnc2)nc2ccccc12	1.8	·
61	CC(C)(C)C1CCc2c(sc(NC(=O)c3cccs3)c2C(=O)N2CCC(C(N)=O)CC2)C1 (centres undefined)	·	-0.04
62	COC(=O)c1ccc(Cn2nc(C)c([N+](=O)[O-])c2C)o1	0.98	0.41
63	S=C(Nc1ccc2nc3c4ccccc4c4ccccc4c3nc2c1)N1CCOCC1	·	-0.55
64	Cn1c(=O)[nH]c(=O)c2c1nc(N1CCCCCC1)n2CCSc1nc2ccccc2o1	·	-1.1
65	COC(=O)c1ccc(C2NC(=O)c3n[nH]c(-c4cccs4)c32)cc1 (centres undefined)	-0.07	0.76
66	O=c1c2cc3c(cc2nc(SCc2nc(-c4ccccc4)no2)n1Cc1ccco1)OCO3	0.24	·
67	Cc1cc2c3c([nH]c2cc1S(=O)(=O)N(C)Cc1ccco1)CC(C)(C)CC3=O	-8.7	·
68	Nc1ncnc2nc(SCC(=O)Nc3ccc(Cl)cc3)[nH]c12	·	0.31
69	CCOC(=O)C1=C(C)NC2=C(C(=O)CC(c3ccccc3)C2)C1c1cccc(O)c1 (centres undefined)	-0.93	-1.3
70	COc1ccccc1-n1nnc(-c2nc(-c3ccc4c(c3)OCO4)no2)c1N	-0.52	·
71	Cc1c(C(=O)N(C)Cc2ccco2)sc2nc3n(c(=O)c12)CCCC3	0.92	·
72	O=C1CC(c2ccco2)Cc2nc(Nc3ccc(Oc4ccccc4)cc3)ncc21 (centres undefined)	-0.6	0.02
73	CCOC(=O)c1cc(-c2ccc(S(=O)(=O)N(C)Cc3cnn(-c4ccccc4)c3)s2)on1	-1.5	·
74	CN1CCN(S(=O)(=O)c2ccc(Sc3nc4ccccc4[nH]3)c3nsnc23)CC1	2.6	-0.24
75	Cc1c(CN(C)C(=O)c2cnn3c(C(F)F)cc(-c4ccccc4)nc23)cnn1C	2.3	-0.16
76	COc1cccc(-c2noc(NC3CCCCC3)n2)c1	-1.7	·
77	Cn1cccc1Cc1nnc(SCC(N)=O)n1-c1ccc(F)cc1	0.1	0.08
78	COc1cccc(CNc2nc(-c3ccc(OC)c(OC)c3)no2)c1	-0.47	·
79	C=C(C)n1c(=O)n(-c2ccc(C(F)(F)F)cc2[N+](=O)[O-])c2ccccc21	·	-1.1
80	O=S(=O)(c1ccc(F)cc1)N1CCC(N2CCCC2)CC1	-0.36	-0.22
81	CCC(C)NCc1ccc2c(c1)n(C)c(=O)n2C (centres undefined)	1.3	-1.8
82	Cn1c2c(c(=O)n(C)c1=O)C(c1cccc(O)c1)C1=C(CCCC1=O)N2 (centres undefined)	·	-1.2
83	CC(=O)Oc1ccc(C(c2ccc(OC(C)=O)cc2)c2ccccn2)cc1	1.1	·
84	CC(C)NC(=O)C1CCCN(S(=O)(=O)c2cccs2)C1 (centres undefined)	·	-0.47
85	Cn1nc(C(=O)NCc2cccs2)c2c1-c1ccccc1SC2	1.8	-2.3
86	CSc1nc2ccccc2c(=O)n1C1CCCCC1	0.64	-2.1
87	O=C(NCc1ccc2c(c1)OCO2)c1[nH]nc2c1COc1ccccc1-2	0.1	·
88	Cc1ccc(C2C3=C(Nc4c2c(=O)[nH]c(=O)n4C)c2ccccc2C3=O)cc1Cl (centres undefined)	-12	-6.7
89	CC(C)Sc1c(Cl)cccc1NC(=O)Nc1cccc(C(F)(F)F)c1	·	-0.86
90	O=C(O)c1cc(N2C(=O)C3C4c5ccccc5C(c5ccccc54)C3C2=O)ccc1N1CCCCC1 (centres undefined)	·	-1.6
91	CCCN1CCC(N2CCN(S(=O)(=O)c3ccc(OC)cc3)CC2)CC1	·	0.69
92	CCOC(=O)c1oc2ccc(S(=O)(=O)n3nc(-c4ccc(OC)cc4OC)cc3N)cc2c1C	·	-1.2
93	NC(=S)N/N=C/c1cccc([N+](=O)[O-])c1	·	-2.2
94	CCC(=O)N1c2ccccc2CC1C(=O)N1CCN(C)CC1 (centres undefined)	2.6	·
95	Cn1c(C(=O)NC2CCCC2)c(N2CCCC2=O)c2cc(F)ccc21	0.25	·
96	CC(C)Cn1cc(NC(=O)NC(c2cccs2)C(C)C)c2ccccc2c1=O (centres undefined)	0.73	·
97	CCOc1c(N2CCN(c3ccccn3)CC2)c(=O)c1=O	-0.32	·
98	Cc1c(C(=O)NCc2ccc3c(c2)OCO3)oc2ccc(S(=O)(=O)N3CCCC3)cc12	·	0.47
99	O=C(Nc1nnc2n1CCS2)C1(c2ccc(Cl)cc2)CCCC1	1.1	·
100	CCOC(=O)NC(=O)c1cn(Nc2ncc(Cl)cc2C(F)(F)F)c(=O)[nH]c1=O	·	-2.1

Continuation.
item	Structure	HIV TAR-Tat	CDC25B CDK2 inh
101	CCOC(=O)c1c(-c2ccccc2)oc2ccc(Oc3c([N+](=O)[O-])ncn3C)cc12	·	-1.4
102	COc1ccc(-c2noc(N3CCN(c4ncccn4)CC3)n2)cc1OC	-0.79	·
103	COc1ccc(OC)c(Nc2nc(Nc3ccccc3)c3cnn(C)c3n2)c1	0.29	·
104	CC1CCCCN1Cc1c(O)ccc2c3c(c(=O)oc12)CCC3 (centres undefined)	·	-0.16
105	COc1cc(OC)cc(C2C(C#N)=C(N)Oc3n[nH]c(C)c32)c1 (centres undefined)	0.73	-0.55
106	O=C(O)C1C2C=CC3(CN(C4CCCC4)C(=O)C13)O2 (centres undefined)	0.66	1.1
107	O=C(Cn1ncn2c(cc3sccc32)c1=O)NCc1ccccc1Cl	0.39	0.48
108	COc1cccc2cc(C(=O)C[n+]3ccc(C)cc3)c(=O)oc12	·	-2.1
109	CCOC(=O)c1c(NC(=O)C2COc3ccccc3O2)sc2c1CCCC2 (centres undefined)	-0.7	-1.1
110	O=C(Cc1cc(F)cc(F)c1)n1nccc1-c1cccs1	·	-0.59
111	CC(C)NC(=O)c1nnc(Cc2ccc3c(c2)OCO3)o1	-0.25	-0.8
112	Cc1ccc2nc(COc3ccc(Cl)cc3Cl)oc(=O)c2c1	·	-0.6
113	COc1ccc(C2=NN(c3nc(C)cs3)C(c3ccc(OC)c(OC)c3)C2)cc1 (centres undefined)	0.68	-0.47

Rows are unselected; about 0.94% have a hit in one of these screens.
